VDR inhibitor = Inhibitors of the vitamin D receptor (VDR): qHTS. Vitamin D3 receptor (Homo sapiens), P11473. VDR-SRC2-3 peptide fluorescence polarization, 2 h. Potency, µM, without a hit: max response, negative = inhibition, most hits filed as inhibitors. 400,000 tested, 0.93% active. AID 504847, 2011; active means well fitted inhibition curve with a large enough effect; inconclusive means small, poorly fitted or top-dose-only effect, or another doubt; inactive means no such curve, though single readings can be large or run the other way; further: series mostly up to about 120 µM
Target sequence (P11473 whole entry, looked up): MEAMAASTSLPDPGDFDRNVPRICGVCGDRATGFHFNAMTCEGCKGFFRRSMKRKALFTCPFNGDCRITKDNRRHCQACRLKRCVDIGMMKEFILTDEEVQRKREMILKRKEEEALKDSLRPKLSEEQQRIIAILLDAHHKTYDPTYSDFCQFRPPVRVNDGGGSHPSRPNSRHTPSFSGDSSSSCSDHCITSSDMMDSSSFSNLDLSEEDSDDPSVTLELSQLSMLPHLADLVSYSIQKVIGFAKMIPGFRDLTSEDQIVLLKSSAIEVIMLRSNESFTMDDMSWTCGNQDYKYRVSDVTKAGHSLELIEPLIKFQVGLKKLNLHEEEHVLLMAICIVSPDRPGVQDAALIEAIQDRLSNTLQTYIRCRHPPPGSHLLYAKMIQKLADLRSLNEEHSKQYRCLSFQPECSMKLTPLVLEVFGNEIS
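The screen uses fluorescence polarization to detect compounds that interfere with recruitment of the SRC2-3 coactivator peptide to VDR; plates are read after 2 h at room temperature.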
Active calls of the source: *; ? = inconclusive; [ ] = remark or other dose. On the % scale 0 is the no-effect control and ±100 the full control effect; potency means the concentration at half of the fitted maximal effect.

nr	canonical_smiles	VDR inhibitor
1	CCOc1cc(/C=N/NC(=O)c2ccc(-c3csc(Nc4ccc(C)cc4)n3)cc2)ccc1OCC(=O)O	10.8%
2	COc1ccc(N(C(=O)c2ccncc2)S(=O)(=O)c2ccc3c4c(cccc24)C(=O)N3C)cc1	8.3%
3	Cc1cccc(NS(=O)(=O)c2nnc(NC(=O)c3ccc(C)c(C)c3)s2)c1	-11.3%
4	CCOC(=O)/C(C#N)=C/c1c(N2CCN(c3cccc(Cl)c3)CC2)nc2c(C)cccn2c1=O	13.4%
5	O=[N+]([O-])c1cc(Cl)cc2c1nc(NCCO)c1ccccc12	19.0%
6	CCOc1ccc(-c2csc(NC(=O)c3ccco3)n2)cc1	-18.3%
7	COC(=O)c1ccc(/C=C/c2c(-c3ccc(OC)cc3)sc3ccccc23)cc1	5.9%
8	CCCCN(CC)CCCNC(=O)CC1Oc2ccccc2NC1=O (configuration not stated)	5.1%
9	NC(=O)c1noc(C(=O)N(CC(=O)NC2CCCC2)Cc2ccc3c(c2)OCO3)c1N	-5.4%
10	COc1ccccc1NC(=O)c1ccc(NC(=O)COC(=O)CC(NC(=O)c2ccccc2Cl)c2ccccc2)cc1 (configuration not stated)	19.3%
11	CCn1c(CNS(=O)(=O)c2ccc(Br)cc2)nnc1SC	5.3%
12	CCOc1ccc(C(=O)Nc2cc(-c3cn4cccnc4n3)ccc2C)cc1OCC	-4.2%
13	COc1cccc(-c2nc3c(C#N)c[nH]n3c2NC2CCCCC2)c1OC	4.7%
14	CC(=O)c1c(-c2ccccc2)c2cc(Cl)ccc2n(C)c1=O	7.8%
15	O=C(NC1CCCCC1)C(c1ccc2ncccc2c1)N(Cc1ccc(F)cc1)C(=O)c1cccs1 (configuration not stated)	-14.8%
16	COc1ccccc1NC(=O)c1ccc(NC(=O)COC(=O)CCC2CCCC2)cc1	10.2%
17	COc1cc2oc(=O)cc(-c3cccc(-c4ccc(C(C)=O)cc4)c3)c2c(OC)c1OC	-18.8%
18	CC(=O)c1ccc(NC(=O)c2cccc(S(=O)(=O)N3CCN(C)CC3)c2)cc1	16.1%
19	COc1cccc(NC(=O)c2oc3ccccc3c2NC(=O)C(C)(C)C)c1	2.2%
20	COc1cc(/C=C(\C#N)c2nc3ccccc3[nH]2)c([N+](=O)[O-])cc1OCc1ccccc1	3.7%

(list continues)
nr	canonical_smiles	VDR inhibitor
21	CCC(=O)Nc1nc(C)c(-c2csc(Nc3cccc(C(=O)O)c3)n2)s1	0.4%
22	O=C1COc2ccc(C(=O)CSc3nnc(Cc4cccs4)n3-c3ccc(Cl)cc3)cc2N1	1.8%
23	Cc1ccc(C)c(S(=O)(=O)NCc2cccnc2)c1	-2.4%
24	Cc1cc(C)n(CC(=O)NNC(=O)c2cccc(C(F)(F)F)c2)n1	9.6%
25	Cc1ccc(C([O-])=C(C(=S)NCc2ccccc2)[n+]2cccc(CO)c2)cc1[N+](=O)[O-]	?
26	COc1ccccc1N1CCN(C(=O)C2CCCCN2S(=O)(=O)c2ccc(C)cc2)CC1 (configuration not stated)	-7.9%
27	O=C1CN(Cc2nc3cc(Cl)ccc3c(=O)[nH]2)CCN1	-2.7%
28	NC(=O)C(=O)N/N=C/c1c(F)c(F)c(F)c(F)c1F	7.3%
29	COc1ccc(NS(=O)(=O)c2cccc(C(=O)NCC(c3ccccc3OC)N3CCCC3)c2)cc1 (configuration not stated)	10.6%
30	COc1ccc2c(c1OC)C(=O)OC2Nc1nc(-c2ccccc2)cs1 (configuration not stated)	5.3%
31	NNc1nc(-c2ccccc2)c2cc(Cl)ccc2n1	-14.6%
32	O=C(Cc1ccccc1)Oc1coc(CSc2ncccn2)cc1=O	9.5%
33	Cc1ccc2nc(SCC(=O)c3c(N)n(C)c(=O)n(C)c3=O)[nH]c2c1	-6.4%
34	CCN1C(=O)N[C@@H](c2cccc(C(F)(F)F)c2)[C@H](C(C)=O)[C@H]1C	3.7%
35	CC1CCN(S(=O)(=O)c2ccc3nc(Nc4ccc(C#N)cc4)ccc3c2)CC1	10.3%
36	O=C(NCc1ccccc1)C1CCC1	2.6%
37	O=C(Nc1ccccc1)c1cccnc1N1CCCC1	8.8%
38	CCOCCOC(=O)COc1ccc2c(=O)c(Oc3ccc(OC)cc3)coc2c1	-9.6%
39	COCCN(CCOC)S(=O)(=O)c1ccc(C(=O)Nc2nc3c(s2)CCc2ccccc2-3)cc1	-6.3%
40	Cc1ccc(NC(=O)NC(=O)c2cnccc2C(F)(F)F)c(C)c1	8.8%

The listing continues:
nr	canonical_smiles	VDR inhibitor
41	CCCc1nc(SCC(=O)N2CCc3ccccc3C2)c2ccccc2n1	-13.7%
42	COc1cccc(CNC(=O)C2CCC(CNS(=O)(=O)c3ccc(Br)s3)CC2)c1 (configuration not stated)	21.7%
43	CCOC(=O)C1=NNC(C(=O)c2ccccc2)C1c1ccc(OC)cc1 (configuration not stated)	?
44	CCn1c(CNC(=O)COc2ccc(C(C)C)cc2)nnc1SCC(=O)Nc1ccc(F)cc1	-4.6%
45	COc1cccc(CC(=O)Nc2cc(S(=O)(=O)N3CCOCC3)ccc2N2CCN(C)CC2)c1	4.0%
46	COc1ccccc1N1CCN(C2CCN(C(=O)COc3cccc(C)c3)CC2)CC1	-12.5%
47	COCCn1c(N2CCCC2)nc2c1c(=O)[nH]c(=O)n2C	-3.5%
48	Cc1cccc(NC(=O)COc2coc(CN3CCN(c4ccccc4)CC3)cc2=O)c1	4.3%
49	N#Cc1cc(C#N)c(N2CCN(c3cccc(Cl)n3)CC2)nc1N	0.4%
50	CCOc1ccc2ccccc2c1/C=N/NC(=O)c1ccncc1	-0.1%
51	N/C(=N\N=C\c1ccnc2ccccc12)SC1CC(=O)N(c2ccc(Br)cc2)C1=O (configuration not stated)	3.7%
52	Cc1ccccc1NC(=O)CSc1nc2cc3c(cc2cc1C)CCC3	15.7%
53	Cc1ccc(SCCC(=O)N2CCOCC2)cc1	-11.2%
54	COc1ccccc1NC(=O)c1nnn(Cc2ccccc2)c1NC(C)=O	-1.6%
55	Cc1noc(/C=C/c2ccco2)c1S(=O)(=O)N1CCC(C(=O)N2CCc3ccccc32)CC1	-10.6%
56	O=C(c1ccc([N+](=O)[O-])cc1)N1c2ncnn2C2(CCCCC2)[C@@H]2CCCC[C@@H]21	17.4%
57	CC(C(=O)NCC(=O)Nc1ccc(F)c(F)c1F)N1CCN(c2ccc(O)cc2)CC1 (configuration not stated)	-5.8%
58	O=C(Cc1nc2ccccc2[nH]c1=O)c1ccc(Cl)cc1	-13.3%
59	NC(CSCc1ccccc1Cl)C(=O)O (configuration not stated)	-7.7%
60	CCCn1c(-c2ccc[nH]c2=O)nc2ccccc21	-3.8%

Next records.
nr	canonical_smiles	VDR inhibitor
61	N#CC1=C2Sc3ccccc3N2CCCC1=O	9.9%
62	CCOC(=O)c1noc2ncnc(N3CCC(C)CC3)c12	9.8%
63	CCCC1=Nc2cc(C(=O)NC3CCCC3)ccc2Sc2ccc(C)cc21	-2.6%
64	COc1cc(C(=O)N2CCCCC2)ccc1OCC(=O)Nc1ccc(F)cc1	-10.3%
65	Cc1ccc(NC(=O)c2cc3cc(OC(F)(F)F)ccc3[nH]2)cc1	-21.8%
66	CCOc1ccc(OCC)c(S(=O)(=O)N2CCOCC2)c1	1.7%
67	Cc1ccc(C)c(N2CCN(C(=O)CCn3c(=S)[nH]c4cc5c(cc4c3=O)OCO5)CC2)c1	2.6%
68	CC(=O)NCCNc1nc(-c2ccc3c(c2)OCO3)nc2ccccc12	-1.2%
69	CN(C(=O)c1ccc(NC(=O)C2CCN(C(=O)OC(C)(C)C)CC2)cc1)C1CCC1	-1.3%
70	CC(Sc1nc2sc3c(c2c(=O)n1-c1ccccc1)CCCC3)C(=O)O (configuration not stated)	42.7%[activator]
71	N#Cc1cccc(C(=O)OCC(=O)c2ccc3c(c2)NC(=O)CO3)c1	-4.6%
72	Cc1cc(C)n(C(C)CNS(=O)(=O)c2ccc(C)c(C)c2)n1 (configuration not stated)	5.7%
73	Cc1ccc(CN=C(Nc2ccccc2)NC2CCCCC2)cc1	7.0%
74	COc1cccc(-c2nc(SCC(=O)NC3CCCC3)c(-c3ccc(C)cc3)[nH]2)c1	-10.0%
75	CN1CCN(CCCNC(=O)c2ccc3c(c2)N(Cc2ccc(F)cc2)CCS3)CC1	7.7%
76	O=C1CN(c2nc(-c3cccnc3)nc3sc4c(c23)CCCC4)CCN1	-14.0%
77	O=C(CSc1cc(Cl)ccc1Cl)NC1CCCc2ccccc21 (configuration not stated)	-7.6%
78	CSc1ccccc1C(=O)Nc1ccc(C)cc1C	4.0%
79	O=C(NCc1ccccc1)c1ccc(CSc2nc3cccnc3n2Cc2cccc(F)c2)cc1	17.2%
80	O=C1CC(N2CCOCC2)C(=O)N1c1ccc2c(c1)OCO2 (configuration not stated)	-3.7%

The list continues:
nr	canonical_smiles	VDR inhibitor
81	COc1ccc(N2CCN(C(=O)CSc3nnc(-c4cccnc4)n3-c3ccc(F)cc3)CC2)cc1	-3.3%
82	CC(C)C(=O)Nc1ccc2oc(=O)ccc2c1	-7.3%
83	CCCN(CCC)CCNC(=O)Cn1ncc2c([nH]c3ccc(C)cc32)c1=O	3.4%
84	c1csc(-c2cn3ccc4ccccc4c3n2)c1	3.6%
85	Cc1cccc(C(=O)N[C@H](C(=O)Nc2ccc(C)c(S(=O)(=O)N(C)C)c2)C(C)C)c1	-5.6%
86	CC1CCCN(C(=O)C2(NC(=O)Nc3cccc(F)c3)CCCCC2)C1 (configuration not stated)	-0.4%
87	CCn1c2ccccc2c2cc(NC(=O)COC(=O)Cc3cn4ccsc4n3)ccc21	4.0%
88	CC(=O)Nc1sc(N/N=C\c2ccccc2F)nc1-c1cccs1	50.1µM*
89	O=C(COC(=O)Cc1c[nH]c2ccccc12)Nc1cccc2ccccc12	4.8%
90	O=C(O)Cc1nc(-c2cccnc2)sc1-c1ccc(Br)cc1	-2.2%
91	Cc1ccsc1/C=N/NC(=O)c1ccco1	-13.3%
92	Cc1cc(C)cc(N2C(=O)CS(=O)(=O)C23C(=O)N(Cc2ccc(F)cc2)c2ccc(C)cc23)c1 (configuration not stated)	15.0%
93	COC(=O)CC1C(=O)NC2CCCCC2N1C(=O)c1ccccc1 (configuration not stated)	5.1%
94	COc1ccc(C(C)=O)cc1COC(=O)c1ccc(N)c([N+](=O)[O-])c1	-10.5%
95	Fc1ccc(C2=Nn3c(Cc4ccccc4)nnc3SC2)cc1	-7.0%
96	Cc1ccc2cc(CN(Cc3nnnn3C3CCCC3)C3CCCCC3)c(=O)[nH]c2c1C	-18.3%
97	O=C(Nc1cc(Sc2ccccn2)cc([N+](=O)[O-])c1)c1cccc(F)c1	8.6%
98	CCOC(=O)C1CCCN(C(=O)c2cc(Nc3ccc(OC)cc3OC)nc3ccccc23)C1 (configuration not stated)	-0.7%
99	Nc1cccc(-c2nc3ccc(N)cc3s2)c1	-18.2%
100	COc1cc(OC)cc(C(=O)N[C@H](C(=O)Nc2cccc(S(=O)(=O)N3CCCC3)c2)C(C)C)c1	-12.6%

Looked up one by one from above:
nr	canonical_smiles	VDR inhibitor
92	Cc1cc(C)cc(N2C(=O)CS(=O)(=O)C23C(=O)N(Cc2ccc(F)cc2)c2ccc(C)cc23)c1 (configuration not stated)	15.0%
99	Nc1cccc(-c2nc3ccc(N)cc3s2)c1	-18.2%
93	COC(=O)CC1C(=O)NC2CCCCC2N1C(=O)c1ccccc1 (configuration not stated)	5.1%

(next part)
nr	canonical_smiles	VDR inhibitor
101	COc1ccc(-c2[nH]c(-c3ccc(C)cc3)nc2SCC(=O)Nc2nccs2)cc1	-21.8%
102	COc1ccc(-n2c(Cc3cccn3C)nnc2SCC(=O)Nc2ccc(C)c(Cl)c2)cc1	4.5%
103	CCc1cccc(NC(=O)C(Cc2ccccc2)NS(=O)(=O)c2cccs2)c1 (configuration not stated)	8.9%
104	CN(C)C(=O)c1ccc(Oc2ccc(C(=O)N(C)C)cc2)cc1	2.3%
105	COc1cccc(-c2csc(N3CCN(CC(=O)NNC(=O)c4ccc(Cl)cc4)CC3)n2)c1	14.2%
106	O=C(CCCOc1ccc(Cl)cc1Cl)NCC1CCCO1 (configuration not stated)	-1.3%
107	CC(C)COc1ccc(C(=S)N2CCCC2)cc1	-3.0%
108	O=c1cc(-c2ccccc2)n(S(=O)(=O)c2ccccc2)o1	-29.0%
109	CCNc1ccc(S(=O)(=O)C(F)(F)F)cc1NC(=O)C12CCC(CC1)C2	-10.8%
110	Cc1ccc(S(=O)(=O)N(C)C)cc1NC(=O)CSc1nnc(C2CC2)n1C1CC1	-4.2%
111	O=C(Nc1ccccc1)c1cnc(N2CCCCC2)c2ccccc12	12.4%
112	Cc1c(NCc2ccccc2O)c(=O)n(-c2ccccc2)n1C	-14.6%
113	COc1cc(C(=O)NC(=S)Nc2ccc(NC(=O)c3ccco3)cc2)cc(OC)c1OC	8.4%
114	C=CCNC(=O)/C(C#N)=C/c1c(N2CCN(c3ccccc3)CC2)nc2c(C)cccn2c1=O	-17.6%
115	Cc1ccc2cccc(Oc3cnccn3)c2n1	0.9%
116	CCOC(=O)c1cc(-c2ccccc2)sc1NC(=O)c1ccc(OC)cc1	50.1µM*
117	O=C1NC2(CCCCCC2)C(=O)N1Cc1ccccc1Br	15.2%
118	CC1CCc2c(sc3ncn(N)c(=N)c23)C1 (configuration not stated)	-21.5%
119	CSc1nc(-c2ccccc2)c(-c2ccccc2)[nH]1	13.9%
120	Cc1ccccc1OC(C)c1nc(-c2ccccc2)no1 (configuration not stated)	-9.0%

Further entries follow.
nr	canonical_smiles	VDR inhibitor
121	CNC(=O)CSc1nnc(-c2ccco2)n1-c1cccc(C)c1C	-3.7%
122	O=C(CCCc1cccs1)Nc1nccs1	-11.2%
123	C=CCOC(=O)N1CCN(c2cccc(C(F)(F)F)c2)CC1	-8.8%
124	C/C=C\C=C/C(=O)Nc1cccc(C2=NOC3(C2)C[C@@H](C(N)=O)N(C(=O)c2ccc(Cl)cc2)C3)c1 (some centres not stated)	-12.2%
125	COc1ccc(/C=N/N2C(C)CCCC2C)cc1O (configuration not stated)	2.0%

An excerpt; the hit share may differ from the screen's.
